AID504770: growth inhibition of E. coli YBA685, primary screen, V. cholerae RctB inhibitors; z-score (no concentration beside the values); E. coli YBA685 rctB-dependent plasmid, OD600 growth, 3 h; active compounds read low; hit rate 0.27% among 130,000; AID 504770, 2011;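 active means z-score under -2 on both plates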;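 further: wells of about 30 µL received 100 nL stock; score is relative to mean and SD of the test wells; the first replicate is given; strong numbers were not always called active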
Ba CapD inh: Bacillus anthracis CapD inhibitors, primary screen, biochemical, fluorescence intensity | purified CapD enzyme, fluorescence intensity read-out; active compounds read low; some hits fall short of the stated cut | z-score (concentration not given with the values) | hit rate 0.23% among 140,000 | AID 492967, 2010;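 active means z-score under -4 in either of two replicates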;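 further: stock transfer was 100 nL into about 40 µL; score is relative to mean and spread of the plate; one replicate is shown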
* = called active by the depositor; x = no result given; & = joins results of further samples.

molecule	AID504770	Ba CapD inh
O=C1CCN(Cc2ccccc2)C(=O)N1c1ccc2c(c1)CCO2	-0.3	0.645
Cc1csc(-c2c(Cl)cc(C(F)(F)F)cc2Cl)n1	x	0.305
CCS(=O)(=O)N1CCC(C(=O)N2CCC3(CC2)OCCO3)CC1	-0.35	x
O=C(Cn1cnc2ccccc2c1=O)OCC(=O)N1CCOCC1	0.3	x
Cc1c(C)n(Cc2ccccc2)c2ncnc(Sc3ccc(C(C)C)cc3)c12	x	0.5
Cc1cn(C2CCC(CO)O2)c(=O)[nH]c1=O (stereo unspecified)	-0.55	0.165
Cc1ccc(S(=O)(=O)N2c3ccccc3-c3ccccc3S2(=O)=O)cc1	x	-0.235
Cc1ccc(-c2nc3ccccc3s2)cc1NC(=O)c1sc2ccccc2c1Cl	x	0.535
NCCc1cccc(Cl)c1	0.8	x
Cc1cc2c(cc1S(=O)(=O)N(CC(C)C)CC(C)C)OCC(=O)N2	-0.4	-0.585
CC1Sc2cc(S(=O)(=O)N3CCc4ccccc4C3)ccc2NC1=O (stereo unspecified)	-0.55	-0.155
O=c1[nH]c(CSc2nnc(CCCOc3ccc(Cl)cc3Cl)o2)nc2ccccc12	-1.05	0.54
CCCCN(C)C(=O)CSc1nc(NCc2ccccc2)c2ccccc2n1	x	-0.02
Cc1ccc(Nc2nc(CSc3nnnn3-c3ccccc3)cc(=O)[nH]2)cc1	0.7	-0.425
CCC1(C)NC(=O)N(NC(=O)CCc2c[nH]c3ccccc23)C1=O (stereo unspecified)	-0.75	x
CCN(CC)c1nc2ccccc2n2cnnc12	-0.1	-0.29
NCCC12CC3CC(C1)CC(C(=O)O)(C3)C2	-0.45	0.285
COc1ccc(CN/C(C)=C/c2nsc(Nc3ccc(F)cc3)n2)cc1	x	0.61
CCOC(=O)CSc1nc2c(c(-c3cccs3)c1C#N)CN(C)CC2	x	-0.595
Cc1cc(C)cc(OCc2ccc(C(=O)O)o2)c1	-0.65	0.155
N#Cc1c(-c2ccccc2)nc(SCC(=O)N2CCCc3ccccc32)[nH]c1=O	-0.3	2.16
CCOC(=O)c1cn[nH]c1NC(=S)NCc1ccccc1	-0.65	0.67
COC(=O)C1=C(C)N(C(C)C)C(=O)/C1=C\c1ccc(C(=O)O)cc1	-0.65	0.22
COc1ccc(N(CN2C(=O)c3ccccc3C2=O)C(=O)C(C)C)cc1	-1.1	x
FC(F)(F)c1cccc(-c2noc(-c3ccccn3)n2)c1	-1.1	-0.085
Cn1c(SCc2cc(=O)oc3cc(O)ccc23)nnc1C(F)(F)F	0.05	1.94
CO[C@H]1[C@H](O)[C@H](O[C@H]2CC[C@]3(C)C4CC[C@]5(C)C(C6=CC(=O)OC6)CC[C@]5(O)C4CC[C@@H]3C2)O[C@@H](C)[C@@H]1O (stereo partly specified)	x	0.07
Cc1ccnc(Sc2ccc(NC(=O)c3ccc(S(C)(=O)=O)cc3)cc2)n1	x	-1.7
Cc1ccc(C)c(S(=O)(=O)Nc2ccc(O)c(Cl)c2)c1	1.05	-0.265
O=C1NC(=O)/C(=C\c2ccc(OCc3c(F)cccc3Cl)cc2)S1	x	-0.8
COc1cc2c(cc1OC)C(=NC(CCSC)C(=O)O)NC(C)(C)C2 (stereo unspecified)	x	0.23
CN(C)c1nc(N)ncc1-c1ccccc1	-0.05	0.28
NC1=NC(c2cccc(Oc3ccccc3)c2)n2c(nc3ccccc32)N1 (stereo unspecified)	-0.4	x
COc1ccc(Br)cc1CNC(=O)C1CCN(C(=O)c2sccc2-n2cccc2)CC1	-1.65	-0.055
CCOC(=O)c1ccc(NC(=O)CCC(C)C(=O)O)cc1 (stereo unspecified)	2.1	0.49
Cc1ccc(SCCC(=O)Nc2c(C)n(C)n(-c3ccccc3)c2=O)cc1	1.45	-1.3
CN(c1ccc(Br)cc1)S(=O)(=O)c1ccc2[nH]cc(C(=O)NCc3ccccn3)c(=O)c2c1	x	2.23
Cc1nnc(N2C(=N)S/C(=C\c3ccccc3Cl)C2=O)s1	0.25	2.69
O=C(CSc1nc2ccccc2nc1N1CCCC1)Nc1ccc(F)cc1	0.55	-0.175
Cc1nn(-c2ccccc2)c2sc(C(=O)OCC#N)cc12	-0.5	x
Cc1ccc(C2=NS(=O)(=O)N(C)C(C(=O)N3CCc4ccccc4C3)=C2)cc1	1.45	1.15
CCN(c1ccccc1)S(=O)(=O)c1ccc2[nH]cc(C(=O)N(CCc3ccccc3)Cc3ccccc3)c(=O)c2c1	x	-0.46
COC(=O)Cn1c(CCS(=O)(=O)c2ccc(Cl)cc2)nc2ccccc21	-1.2	-0.175
C[C@]12CCC3C(CC[C@]4(O)C[C@@H](O)CC[C@]34C=O)[C@@]1(O)CCC2C1=CC(=O)OC1 (stereo partly specified)	0.2	0.055
COC(=O)c1ccc(NC(=O)CNc2cc(Cl)ccc2OC)cc1	0.6	0.32
O=C(/C=C/c1ccco1)OCCN1CCOCC1	-0.25	x
C=C1C(C(=O)Nc2ccc3c(c2)OCCO3)C1C(=O)Nc1ccc2c(c1)OCCO2 (stereo unspecified)	0.4	-0.1
COc1ccc(S(=O)(=O)C(C#N)c2nc3ccccc3nc2N2CCCC2)cc1 (stereo unspecified)	0.85	x
O=C(NC1CCCC1)c1ccc2c(c1)OCO2	-0.55	x
S=C1NCc2ccsc2S1	-0.95	-0.015
Cc1cc(C)c2c(n1)SCC(=O)N2CC(=O)NC(C)C	0.15	-0.13
COc1ccc(CCNC(=O)c2ccc(N3CCCC3=O)cc2)cc1OC	-0.6	0.95
O=C(CCCN1C(=O)/C(=C\c2ccco2)SC1=S)N1CCCCC1	-0.45	x
COc1cc2c(cc1OC)CN(Cc1ccc(C)o1)CC2	-0.35	-0.48
Clc1ccc2sc(Oc3cccc(N4CCOCC4)c3)nc2c1	2.4	-1.25
Nc1ccccc1C(=O)c1ccccc1C(=O)O	1.35	-1.19
CC(NC(=O)CC1CCCCC1)c1ccccc1 (stereo unspecified)	0.35	0.42
COC(=O)CSC(=S)N1CCC(C)CC1	1.6	x
COc1ccccc1NC(=O)CSc1nc2ccccc2n1S(=O)(=O)c1ccc(NC(C)=O)c(Cl)c1	x	-0.105
COc1ccc(-c2csc3ncc(S(=O)(=O)c4ccc(F)c(Cl)c4)c(=O)n23)cc1OC	0.5	0.465

(listing goes on)
molecule	AID504770	Ba CapD inh
O=S1(=O)CCN(Cc2cc(F)cc3c2OCOC3)CC1	0.35	-0.425
N#CCSc1nc2cc(C(=O)N3CCC4(CC3)OCCO4)ccc2c(=O)n1Cc1ccc2c(c1)OCO2	x	-0.185
C=CCN1C(=O)NC(=O)/C(=C/c2ccccc2OCc2ccc(Cl)cc2)C1=O	x	0.185
COC(=O)c1ccc(CN2CCN(c3ccccc3)CC2)o1	0.35	x
c1ccc(C2OCc3nonc3CO2)cc1	-0.35	-0.105
Cc1cc(O)c(-c2ccn[nH]2)c(=O)o1	0.6	-0.02
O=C(Nc1ccc(N2CCCCC2)cc1)c1c(Cl)nc2sccn12	-0.55	x
Cc1c(C)c(C)c(CN2CCSCC2)c(C)c1C	-0.4	-0.41
O=C(COC(=O)c1cncc(Br)c1)NC1CC1	1.65	-0.335
CCOC(=O)c1ccc2nc(NC(=O)COC(=O)c3ccnn3C)sc2c1	0.4	2.04
CCCCCCNC(=O)c1ccc(N2CC3CC(C2)c2cccc(=O)n2C3)c(NS(=O)(=O)c2ccc(Cl)cc2)c1 (stereo unspecified)	x	-0.34
OCCSCc1cc(Cl)ccc1OC(F)F	-0.15	x
Cc1cccc(C)c1NC(=O)C1c2cccc[n+]2CC(=O)N1C (stereo unspecified)	-0.1	-0.11
OC(c1ccccc1)(c1ccccc1)C1CCNCC1	0.6	-0.59&0.34
COc1ccc(CCNC(=O)c2cnn(-c3ccc(C)c(C)c3)c2NC(=O)c2ccco2)cc1OC	1.35	0.5
CCNC(=S)N1CCN(C)CC1	1.35	x
COc1ccc(N(CC(=O)Nc2cc(C)on2)S(=O)(=O)/C=C/c2ccccc2)cc1	-0.15	x
CCCN(Cc1ccccc1)C(=O)c1ccc(N2C(=O)c3ccccc3C2=O)cc1	0.35	1.3
O=C(CCn1c(=O)sc2ccccc21)NCc1ccccc1	-0.55	0.75
CCCCNC(=O)c1ccccc1NC(=O)C1=C(C)OCCS1	-0.25	0.14
CC1CN(C(=O)c2ccccc2C(=O)Nc2ccc3nc(SCC(=O)NC4CCCCC4)sc3c2)CC(C)O1 (stereo unspecified)	x	0.97
CCOC(=O)CCc1c(C)nc(SCC(=O)O)c(C#N)c1C	-0.25	x
Nn1c(SCC2CCCCO2)nnc1-c1ccncc1 (stereo unspecified)	-0.2	x
CN(C(=O)c1ccc(N=Cc2nc(-c3ccc([N+](=O)[O-])cc3)oc2O)cc1)c1ccccc1	x	0.18
CSc1ccc(C2Nc3ccc4ncccc4c3C3=C2C(=O)CCC3)cc1 (stereo unspecified)	-0.35	6.68
Cc1cc(NC(=O)CC(C)C)no1	-0.5	x
CCCNC(=O)NC1CC(C)(C)NC(C)(C)C1	-0.4	x
COc1cccc(C=C2C(=O)NC(=O)NC2=O)c1	-0.8	x
CCCNC(=O)c1ccc(C)c(NC(=O)C2=CSCCO2)c1	0.1	0.005
c1ccc(SCc2nc3ccccc3[nH]2)cc1	-1.2	0.69
O=C(NC1CCCc2ccccc21)c1cccnc1 (stereo unspecified)	-0.05	x
O=C(Cn1cnc2ccccc2c1=O)c1cccs1	-0.95	-0.38
O=C1Nc2ccccc2/C1=C/c1ccc(Oc2ccccc2)nc1	0.25	0.1
CN(C)S(=O)(=O)c1ccc(C(=O)NCc2nnc(SCC(=O)Nc3ccc(F)cc3)n2-c2ccc(F)cc2)cc1	x	-0.425
O=C1OC(c2ccccc2)=C/C1=C1\c2ccccc2-c2ncccc21	x	-0.715
O=C(NCCN1CCNC1=O)Nc1cccc2ccccc12	0.65	6.34
COc1cc2c(cc1OC)CN(C1CCCCN(C(=O)c3ccc(F)cc3)C1=O)CC2 (stereo unspecified)	-1.35	x
O=C(c1ccco1)N1CCN(C(=S)Nc2ccc(S(=O)(=O)Nc3ncccn3)cc2)CC1	-0.8	-0.14
O=C(NCc1cccc(C(F)(F)F)c1)C1CCN(Cc2cc3cccc4c3n(c2=O)CCC4)CC1	x	0.74
O=C(O)c1nccnc1C(=O)N1CCN(C(c2ccccc2)c2ccccc2)CC1	0.65	x
O=S(=O)(NCc1ccc2c(c1)OCO2)c1ccccc1	0.15	0.805
Cc1ccc(Cn2c(N)c(C#N)c3nc(C#N)c(C#N)nc32)cc1	-0.55	x
CCNc1cc(NC(C)=O)ccc1C	x	0.715
O=C(CSc1ccccc1)Nc1nc2ccccc2[nH]1	-0.1	x
CCOC(=O)C1C(=O)NC(SCC(=O)Nc2ccccc2)=C(C#N)C1c1ccccc1Cl (stereo unspecified)	x	-0.345
Cc1ccc(CSc2nccc(C)n2)cc1	-0.4	0.065
CSc1nc(N/C=C(\C#N)S(=O)(=O)c2ccccc2Cl)nc(C2CC2)n1	1	0.88
CCOc1ccc(NC(=O)CSc2nc3n[nH]c(C)c3c(=N)n2-c2ccc(Br)cc2)cc1	x	-0.31

Retrieved by structure from the entries so far, 3 records:
molecule	AID504770	Ba CapD inh
CCOC(=O)C1C(=O)NC(SCC(=O)Nc2ccccc2)=C(C#N)C1c1ccccc1Cl (stereo unspecified)	x	-0.345
Cc1ccc(CSc2nccc(C)n2)cc1	-0.4	0.065
O=C(c1ccco1)N1CCN(C(=S)Nc2ccc(S(=O)(=O)Nc3ncccn3)cc2)CC1	-0.8	-0.14

Next section
molecule	AID504770	Ba CapD inh
O=C(NC1=NCCS1)c1cc2c(s1)CCC2	-2.35*	5.3
N#Cc1c(N)[n+]([O-])c2ccccc2[n+]1[O-]	-4.4*	-1.2
O=c1c2cc3c(cc2nc2sc(NCc4ccccc4)nn12)OCO3	0.55	0.77
O=C(CSCc1cccc2ccccc12)NNC(=S)Nc1ccccc1Cl	x	-0.165
O=C(CCNC(=O)c1ccco1)Nc1cc(Cl)ccc1N1CCCCCC1	-0.2	x
Cc1cccc(Cl)c1S(=O)(=O)NC(Cc1ccccc1)C(=O)NC1CCCCC1 (stereo unspecified)	x	-0.555
COc1ccc(C2CC(=O)C3=C(C2)NC(C)=C(C(=O)OC(C)C)C3c2cccc(OC)c2OC)cc1OC (stereo unspecified)	x	22.8
OC(COCc1ccccc1)Cn1cnc2ccccc21 (stereo unspecified)	0	0.105
O=C(c1ccccc1)C(O)c1c[nH]c2ccccc12 (stereo unspecified)	0.3	0.51

A different layout for 3 compounds above.
COc1ccc(C2CC(=O)C3=C(C2)NC(C)=C(C(=O)OC(C)C)C3c2cccc(OC)c2OC)cc1OC (stereo unspecified)
  AID504770: x	Ba CapD inh: 22.8

OC(COCc1ccccc1)Cn1cnc2ccccc21 (stereo unspecified)
  AID504770: 0	Ba CapD inh: 0.105

O=C(c1ccccc1)C(O)c1c[nH]c2ccccc12 (stereo unspecified)
  AID504770: 0.3	Ba CapD inh: 0.51

From PubChem
